Mtb bLac sens: beta-lactam sensitization of Mtb H37Rv, H37Rv; M. tuberculosis H37Rv growth with meropenem, percent inhibition; hits of this screen are not shown here; inhibition, % at 25 µM; 330,000 compounds, 0.27% hits; AID 434955, 2010;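 active means about 74% or more and at least 40 points above the plate without the antibiotic, then above 30% in a dose series; inconclusive means first-round hits that could not be retested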;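 further: growth measured after seven days incubation then overnight dye step; 0% = bacteria only wells and 100% = bacteria with antibiotic; twin plates without the antibiotic show which effects depend on it; some results filed as inactive read as strong as hits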
* hit, by the source's call; ? = inconclusive. Not all compounds are listed, so the mix of outcomes need not match the whole.

SMILES,Mtb bLac sens
CN(CC(=O)Nc1cccc(F)c1)CC(=O)Nc1cccc2ccccc12,2.2
CCOc1ccc(S(=O)(=O)Nc2cccc(C(=O)NCC3CCCO3)c2)cc1 (stereo not given),-1.9
COc1ccc(C(C)=O)cc1CC(=O)Nc1cccc(S(=O)(=O)N2CCOCC2)c1,1.2
COc1ccc(-c2nn(Cc3ccccc3)cc2C(=O)NC2CC2)cc1OC,3.1
CCOC(=O)CCCCCC(=O)Nc1ccc2c(c1)CC(=O)N([C@H](C)CO)C[C@H](C)[C@H](CN(C)S(=O)(=O)c1ccc(OC)cc1)O2,1.6
N#Cc1ccc(C(=O)OCC(=O)Nc2cccc(S(=O)(=O)N3CCCCC3)c2)cc1,-5.4
CCOc1ccc(N2CC(C(=O)NCC(=O)Nc3ccc(F)c(F)c3F)CC2=O)cc1 (stereo not given),8.5
COc1ccccc1NC(=O)c1ccc(Cl)c(S(=O)(=O)NCc2ccco2)c1,-4.2
CCOc1ccc(CN(C)C(=O)CN2C(=O)NC3(CCCc4ccccc43)C2=O)cc1 (stereo not given),-9.2
CCN(C(=O)c1cc(S(=O)(=O)N2CCCC2)ccc1C)C1CCS(=O)(=O)C1 (stereo not given),4.3
O=C(CSc1nnc(-c2ccc(Cl)cc2)o1)NNC(=O)c1ccncc1,99.0
Cc1ccc(SCC(=O)Nc2ccc(N3CCOCC3)cc2)cc1C,15.3
CC(=O)c1cccc(OCC(=O)N(Cc2ccco2)c2c(N)n(Cc3ccccc3)c(=O)[nH]c2=O)c1,-2.1
COc1cc(C(=O)NCc2cccs2)ccc1OCc1c(C)noc1C,0.0
C=C[C@H]1[C@H](O[C@@H]2O[C@H](CO)[C@@H](O)[C@H](O)[C@H]2O)OC=C2C(=O)OCC[C@]21O,4.2
CN(C(=O)c1cccc(NC(=O)Cc2cccc([N+](=O)[O-])c2)c1)C1CCC1,-5.1
CCNC(=O)N(CC)C[C@H]1N[C@@](C)(C(=O)OC)[C@H]2C(=O)N(C)C(=O)[C@@H]12,-4.3
COc1ccccc1NS(=O)(=O)c1ccc(C(=O)NCc2ccncc2)cc1,-4.7
CC(=O)Nc1ccc(S(=O)(=O)Nc2nc3ccccc3nc2N2CCOCC2)cc1,-2.1
COc1ccc2c3n(nc2c1)CCN=C3c1ccc(Cl)cc1,-3.2
COc1ccc(NC(=O)CN(C)C(=O)CCc2c[nH]c3ccccc23)cc1,0.1
C[C@H](CO)N1C[C@H](C)[C@@H](CN(C)C(=O)Nc2ccccc2)Oc2ccc(NC(=O)CCC(F)(F)F)cc2C1=O,-5.0
COc1ccc(NC(=O)CN2C(=O)NC(CC(C)C)C2=O)cc1S(=O)(=O)N1CCOCC1 (stereo not given),2.9
COc1cccc(NC(=O)c2cccc(Cl)c2)c1,31.4
CCN(CC(=O)Nc1ccc(NC(C)=O)cc1)C(=O)c1ccc2c(c1)OCO2,-3.7
C[C@@H]1O[C@@H](O[C@@H]2C(=O)c3c(O)cc(O)cc3O[C@H]2c2ccc(O)c(O)c2)[C@H](O)[C@H](O)[C@H]1O,-2.3
COc1ccc(CCC2(C)NC(=O)N(C(C)C(=O)N3c4ccccc4CC3C)C2=O)cc1 (stereo not given),5.1
O=C(COC(=O)CNC(=O)c1ccccc1)NCCNC(=O)COC(=O)CNC(=O)c1ccccc1,-0.2
CCN(CC(=O)Nc1c(F)cccc1F)C(=O)c1ccc(-c2ccc(C(C)=O)cc2)o1,1.1
Cc1cccc([C@H](NC(=O)OC(C)(C)C)C(=O)OC(C)(C)C)c1,-0.4
CC1(C)CC[C@]2(C(=O)O)CC[C@]3(C)C(=CC[C@@H]4[C@@]5(C)CC[C@H](O[C@@H]6O[C@H](C(=O)O)[C@@H](O)[C@H](O[C@@H]7OC[C@H](O)[C@H](O)[C@H]7O)[C@H]6O)C(C)(C)[C@@H]5CC[C@]43C)[C@@H]2C1,-8.7
CC(C)(C)OC(=O)Nc1ccc([C@@H](NC(=O)OC(C)(C)C)C(=O)OC(C)(C)C)cc1,0.7
COc1cc2c(cc1O)[C@@H]1Cc3ccc(OC)c(O)c3CN1CC2,1.8
O=C(c1cn(Cc2ccccc2)nc1-c1ccccc1)N1CCN(c2ccccn2)CC1,43.8
O=C1ON=C(c2ccccc2[N+](=O)[O-])/C1=C/c1cccc([N+](=O)[O-])c1O,-4.0
CC(=O)Nc1ccc(NC(=O)CC2SC(=O)N(CC(=O)c3ccccc3)C2=O)cc1 (stereo not given),5.5
COc1cc2sc3cc(NCCCN4CCOCC4)ccc3c(=O)c2cc1OC,81.4
CCOc1cc(N2CCOCC2)c(OCC)cc1NC(=O)C(C)Oc1ccccc1 (stereo not given),4.5
Cn1cnnc1SCC(=O)NCCC1=CCCCC1,-4.2
O=C(NN1C(=O)NC2(CCCCC2)C1=O)c1ccc(Cl)s1,-4.0
Cn1cnc(C(=O)NCc2ccccc2)c1C(=O)NCc1ccccc1,-1.1
Cc1ccccc1OCCC(=O)OCC(=O)NCCc1ccc(S(N)(=O)=O)cc1,3.2
O=C(CSc1nnc(C2CC2)n1-c1ccccc1)N1CCNC1=O,-2.4
O=C(COC(=O)Cc1n[nH]c(=O)c2ccccc12)NNC(=O)c1ccc(Br)cc1,2.3
Cc1[nH]c2ccccc2c1C(=O)CN1C(=O)NC2(CCCCCC2)C1=O,-10.4
Cc1ccc(S(=O)(=O)NC2CCCCC2)cc1C(=O)N1CCC(C(N)=O)CC1,-0.8
Cn1nnnc1Sc1ncnc2scc(-c3ccc[nH]3)c12,?
N#CC1(NC(=O)COc2ccc(C(N)=O)cc2)CCCC1,-4.2
COc1ccccc1CN(C)C(=O)c1ccc(S(=O)(=O)NCc2ccco2)cc1,4.5
O=C(COc1ccc(Br)cc1)N1CCN(c2ncccn2)CC1,-3.5
COCc1ccc(C(=O)OC(C)C(=O)Nc2c(C)n(C)n(-c3ccccc3)c2=O)cc1 (stereo not given),-5.1
O=C(Nc1cccc(S(=O)(=O)NC2=NCCC2)c1)c1ccccc1F,-5.8
OC1(c2ccccc2)CCNC2CCCCC21 (stereo not given),-11.0
O=C(O)c1cccc(S(=O)(=O)N2CCCC(c3nc4c(nnn4Cc4ccccc4Cl)c(=O)[nH]3)C2)c1 (stereo not given),-10.3
O=C(COC(=O)/C=C/c1ccc(OC(F)F)cc1)NC1CCCC1,8.6
O=C(COc1ccc(-n2cnnn2)cc1)Nc1ccc(Br)cc1F,-1.1
CCN(C(=O)COC(=O)C1CCN(S(=O)(=O)c2c(Cl)cccc2Cl)CC1)C1CCCCC1,-0.5
Fc1ccc2cc(-c3cccnc3)ncc2c1,-1.6
COc1ccccc1N(C)S(=O)(=O)c1ccc(C(=O)Nc2cc(F)ccc2C)cc1,-4.1
CC1CCN(C(=O)COC(=O)CCC(=O)c2ccc(Cl)cc2)CC1,-8.5

(listing goes on)
SMILES,Mtb bLac sens
COc1ccc([C@H]2CC(=O)C=C(c3cc(C(F)(F)F)cc(C(F)(F)F)c3)C2)cc1,-0.6
O=C(Cc1c(O)c2ccccc2oc1=O)c1ccc(F)cc1,-3.0
CN(C)C1=NC[C@H](Cc2ccccc2)N1CC1CCCCC1,-4.5
CCC(C(=O)N1CCN(S(=O)(=O)c2sc(C(=O)O)c(C)c2C(=O)O)CC1)c1ccccc1 (stereo not given),-6.9
CC1CCCN(CC(=O)NC(=O)NC2CCCCC2)C1 (stereo not given),-1.2
COC(=O)c1ccc(C)c(NC(=O)C2CC(=O)N(C3CCCC(C)C3C)C2)c1 (stereo not given),6.0
C[C@H]1CN([C@@H](C)CO)C(=O)c2cccc(NC(=O)Nc3ccc(C(F)(F)F)cc3)c2O[C@@H]1CN(C)S(=O)(=O)c1ccccc1,81.4
O=C(COC(=O)Cc1ccsc1)Nc1cccc(Cl)c1,3.9
Cc1noc(C)c1NC(=O)Nc1cccc2c1O[C@@H](CN(C)Cc1ccc3c(c1)OCO3)[C@@H](C)CN([C@H](C)CO)C2=O,-4.7
COC(=O)c1cc(C(=O)N2CCc3ccccc32)cc([N+](=O)[O-])c1,2.6
CCC(CO)Oc1cc(NCc2ccccc2C(F)(F)F)c2ncn(C(C)C)c2c1 (stereo not given),11.5
COc1ccc(CNC(=O)c2ccc(S(=O)(=O)NCc3ccco3)cc2)cc1,15.6
COC(=O)[C@]1(C)CCC[C@@]2(C)C3CC[C@@]4(C)C[C@]3(CCC21)CC(=O)N4Cc1ccc(OC)cc1 (stereo not given in full),27.9
COc1ccc(CC(=O)Nc2ccc(S(=O)(=O)N3CCCC3)cc2)c(OC)c1,1.4
COc1cccc(/C=C/C(=O)OCC(=O)NCc2ccc3c(c2)OCO3)c1,7.6
O=C(Nc1ccc(F)cc1)C(c1ccccc1)N1CCN(CC(=O)N2CCOCC2)CC1 (stereo not given),-3.8
CCC(=O)NC(C)c1cc(Cl)c2cccnc2c1O (stereo not given),80.4
CCOc1ccc(NC(=O)CN(C)C(=O)C2COc3ccccc3O2)cc1OCC (stereo not given),-3.1
CC(=O)c1cccc(CN2CCC(n3nccc3NC(=O)CCc3ccccc3)CC2)c1,?
COc1cc(N)c(Cl)cc1C(=O)OCC(=O)NC(=O)NCc1ccco1,0.8
Cc1cccc(C(=O)OCC(=O)NCc2ccco2)c1,-5.2
CN(C)S(=O)(=O)c1cccc(NC(=O)CN2C(=O)NC(Cc3ccccc3)C2=O)c1 (stereo not given),-5.4
O=C(N[C@@H]1C/C=C\C[C@H](CC(=O)N(CCO)Cc2ccccc2)C(=O)N[C@@H](Cc2c[nH]c3ccccc23)COC1=O)OCC1c2ccccc2-c2ccccc21,8.6
COc1ccc(NC(=O)CNc2cccc(S(=O)(=O)N3CCCCCC3)c2)c([N+](=O)[O-])c1,-6.9
CC(=O)c1ccccc1NC(=O)COC(=O)CCC1CCCC1,7.1
COc1cc(NC(=O)[C@H]2CCCN2S(=O)(=O)c2cccc3cccnc23)cc(OC)c1OC,-13.4
COCCN(CC(=O)Nc1ccccc1C(F)(F)F)C(=O)c1ccc(-n2cccn2)cc1,-11.3
Cc1c(NC(=O)c2cccc(NC(=O)Cc3ccc(Cl)cc3)c2)c(=O)n(-c2ccccc2)n1C,-7.1
COc1ccc(-c2nn(Cc3ccccc3)cc2C(=O)N2CCN(c3ncccn3)CC2)cc1OC,-6.2
NS(=O)(=O)c1ccc(NC(=O)COC(=O)CCc2nc3ccccc3c(=O)[nH]2)cc1,-0.5
COC(=O)[C@]1(C)N[C@H](CN(C)C(=O)COc2ccccc2)[C@@H]2C(=O)N(C)C(=O)[C@@H]21,0.6
C#CCOCCOCCOCCNc1nc(N2CCOCC2)nc(N2CCN(C(=O)[C@H](CC(N)=O)n3cc([C@@H](N)C(C)C)nn3)CC2)n1,0.6
Cc1nc2ccc(NS(=O)(=O)c3c(F)cccc3F)cc2s1,-1.1
COC(=O)C1=C(c2cccc3c2S(=O)(=O)c2ccccc2-3)C[C@@H]2CC[C@H]1N2C(=O)N1CCOCC1,4.0
Cc1ccc(S(=O)(=O)Nc2cccc(S(=O)(=O)Nc3ccccc3C(=O)O)c2)c(C)c1,-3.1
CCCC[C@@H]1C=C(C(=O)O)[C@H](c2ccc(Cl)cc2)N1S(=O)(=O)c1ccc(C)cc1,-8.8
COc1cc([C@@H]2CC=C(C(=O)O)[C@H](c3cccc(Cl)c3)N2S(=O)(=O)c2ccc(C)cc2)cc(OC)c1OC,-7.3
COc1ccc(/C=C/C(=O)OCC(=O)NC(C)CCc2ccccc2)cc1 (stereo not given),-7.6
CCC1=NN2C(=N)/C(=C/c3ccc(OS(=O)(=O)c4ccc(C)cc4)c(OC)c3)C(=O)N=C2S1,-3.2
CC(=O)Nc1cccc(NC(=O)CSc2nnc3ccccn23)c1,0.0

3 entries from above, field by field:
C#CCOCCOCCOCCNc1nc(N2CCOCC2)nc(N2CCN(C(=O)[C@H](CC(N)=O)n3cc([C@@H](N)C(C)C)nn3)CC2)n1
- Mtb bLac sens: 0.6
Cc1nc2ccc(NS(=O)(=O)c3c(F)cccc3F)cc2s1
- Mtb bLac sens: -1.1
COC(=O)C1=C(c2cccc3c2S(=O)(=O)c2ccccc2-3)C[C@@H]2CC[C@H]1N2C(=O)N1CCOCC1
- Mtb bLac sens: 4.0

(further entries)
SMILES,Mtb bLac sens
Cc1cccc(NC(=O)c2nc[nH]c2C(=O)N2CCN(c3ccccc3)CC2)c1,7.7
CCCc1cc(=O)[nH]c(SC(C)C(=O)Nc2ccc3c(c2)OCCO3)n1 (stereo not given),1.1
Cc1cnc(C(=O)OCC(=O)Nc2ccccc2[N+](=O)[O-])cn1,-10.7
NC(=O)c1ccsc1NC(=O)COC(=O)/C=C/c1ccccc1[N+](=O)[O-],48.6
O=C(CSc1nnc(-c2ccncc2)o1)Nc1ccc(F)c(F)c1,-6.9
CC(=O)c1sc(NC(=O)c2oc3ccc(F)cc3c2C)nc1C,-7.5
Cc1noc(C)c1C(=O)Nc1cccc(S(=O)(=O)N2CCCCC2)c1,-6.9
C[C@H](NC(=O)c1nc[nH]c1C(=O)NCc1ccc(CNC(=O)OC(C)(C)C)cc1)c1ccccc1,18.4
COc1ccc(CCNC(=O)c2cccc(S(=O)(=O)N3CCCCCC3)c2)cc1,-7.2
COc1ccc(CNC(=O)C(C)N2C(=O)NC(c3ccccc3)(c3ccccc3)C2=O)cc1 (stereo not given),-3.8
Cn1c(-c2ccsc2)c(-c2cccs2)c2cc(-c3ccc4cc[nH]c4c3)ccc21,-2.7
Nc1nnc(SCC(=O)NNC(=O)c2ccc(F)cc2)s1,-1.0
CCCn1c(=N)c(S(=O)(=O)c2ccccc2)cc2c(=O)n3cccc(C)c3nc21,4.4

Screens deposited in PubChem by Southern Research Specialized Biocontainment Screening Center.
